Source: PubChem
ID4 binder: binders of human ID4 protein, primary screen, biochemical, small molecule microarray, single point | DNA-binding protein inhibitor ID-4 (Homo sapiens), P47928 | Flag-ID4 binding, fluorescence F/B | calls only | actives 1.2% (n = 31,000) | AID 624137, 2012;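 active = spot signal over background at p below 0.07 in all four prints; compounds were printed on slides so no solution concentration is given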;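 also: a binder raises fluorescence above local background on the spot; about 2 pmol printed per array spot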
Target sequence (P47928 whole entry, looked up): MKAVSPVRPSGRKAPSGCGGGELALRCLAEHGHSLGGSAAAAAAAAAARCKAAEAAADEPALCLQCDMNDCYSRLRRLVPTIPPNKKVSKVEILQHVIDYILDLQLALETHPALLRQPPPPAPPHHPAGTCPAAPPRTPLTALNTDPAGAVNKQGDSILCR
Calls only; i = inactive; + = active, no number. Only part of the results is shown. The share of hits here may be higher or lower than overall.

SMILES	ID4 binder
COCCNC(=O)C[C@@H]1C[C@H]2c3cc(N(C)C)ccc3O[C@H]2[C@H](CO)O1	i
CCOC(=O)N(C)C[C@@H]1OCc2ccccc2-c2ccccc2C(=O)N([C@H](C)CO)C[C@@H]1C	i
OCC1CCCN1CC1CC1 (centres undefined)	i
CCCN(C)C[C@H]1Oc2ncc(-c3ccncc3)cc2C(=O)N([C@@H](C)CO)C[C@@H]1C	i
C[C@H]1CN([C@@H](C)CO)C(=O)c2cc(-c3ccc(C(=O)N(C)C)cc3)cnc2O[C@@H]1CN(C)C(=O)c1ccncc1	i
Cc1ccccc1CN(C)C[C@H]1OCc2cn(nn2)CCCC(=O)N([C@H](C)CO)C[C@@H]1C	i
CCOc1ccc(NC(=O)Cn2ccc([N+](=O)[O-])n2)cc1	i
C[C@H](CO)N1C[C@H](C)[C@H](CN(C)CC2CCCC2)Oc2ncc(Br)cc2C1=O	i
CCc1ccccc1NC(=O)CNS(=O)(=O)c1ccc(C)cc1	i
CC(=O)c1ccc(NC(=O)CSc2nc(-c3ccccc3)cc(=O)[nH]2)cc1	i
C/C=C/c1cnc2c(c1)C(=O)N([C@H](C)CO)C[C@@H](C)[C@H](CN(C)S(=O)(=O)c1cccs1)O2	i
CCNC(=O)C[C@H]1C=C[C@@H](NC(=O)C2CC2)[C@@H](CO)O1	i
CC(C)CC#Cc1ccc2c(c1)O[C@H](CN(C)Cc1ccncc1)[C@@H](C)CN([C@@H](C)CO)S2(=O)=O	i
Cn1nc(C(C)(C)C)cc1C(=O)NN1CCOCC1	i
C[C@H](CO)N1C[C@H](C)[C@H](CN(C)Cc2ccccn2)Oc2ncc(C#CC3CC3)cc2C1=O	i
Cc1ccc(S(=O)(=O)NCCNc2ccccc2[N+](=O)[O-])cc1	i
COC(=O)C[C@@H]1C[C@H]2c3cc(N(C)C)ccc3O[C@H]2[C@@H](CO)O1	i
Cc1cc(N(CC(=O)Nc2ccc(Oc3ccccc3)cc2)S(C)(=O)=O)ccc1Br	i
COc1cccc(-c2cnc3c(c2)C(=O)N([C@@H](C)CO)C[C@@H](C)[C@H](CN(C)Cc2ccncc2)O3)c1	i
CCCN(C)C[C@@H]1Oc2cc(-c3ccc(OC)cc3)ccc2S(=O)(=O)N([C@H](C)CO)C[C@@H]1C	i

In a second layout: 4 of the compounds above.
CCCN(C)C[C@H]1Oc2ncc(-c3ccncc3)cc2C(=O)N([C@@H](C)CO)C[C@@H]1C
- ID4 binder = i

CCc1ccccc1NC(=O)CNS(=O)(=O)c1ccc(C)cc1
- ID4 binder = i

C[C@H](CO)N1C[C@H](C)[C@H](CN(C)Cc2ccccn2)Oc2ncc(C#CC3CC3)cc2C1=O
- ID4 binder = i

Cc1ccc(S(=O)(=O)NCCNc2ccccc2[N+](=O)[O-])cc1
- ID4 binder = i

The listing continues.
SMILES	ID4 binder
COc1ccccc1-c1ccc([C@H]2[C@@H](CO)N(C(=O)C3CCCCC3)[C@H]2C#N)cc1	i
c1ccc2c(c1)[nH]c1nc(SCCN3CCOCC3)nnc12	i
COc1ccc(OC)c(NC(=O)CNC(=O)c2cccs2)c1	i
O=C(COc1cc(Cl)c(Cl)cc1Cl)Nc1ccccc1C(=O)N1CCCCC1	i
COC(=O)c1ccccc1NC(=O)Cn1nnc(-c2ccc(OC)cc2)n1	i
Cc1cccc(N=C2SCC(=O)N2c2cccc(C)c2)c1	i
COc1c(Cl)cc(C(=O)Nc2sc3c(c2C(=O)NC2CCS(=O)(=O)C2)CCC(C)C3)cc1Cl (centres undefined)	i
Cc1cccc(-n2c(C)nnc2SCC(=O)Nc2ccc(Br)cc2F)c1	i
C[C@@H]1CN([C@H](C)CO)C(=O)c2cc(Br)cnc2O[C@@H]1CN(C)C(=O)c1ccccc1	i
Cc1ccc(S(=O)(=O)N[C@@H]2CC[C@H](CC(=O)N3CCC(Cc4ccccc4)CC3)O[C@@H]2CO)cc1	i
Cc1ccc(C)c(NS(=O)(=O)c2cc(C(=O)Nc3cccc(N(C)S(C)(=O)=O)c3)ccc2C)c1	i
CCCNC(=O)N[C@H]1C=C[C@H](CC(=O)NCCc2ccccc2)O[C@@H]1CO	i
COc1cccc(N(CC(=O)Nc2c(C)cc(C)cc2C)S(C)(=O)=O)c1	i
C[C@H](CO)N1C[C@H](C)[C@H](CN(C)Cc2ccccc2C(=O)O)Oc2cc(-c3ccc(C(=O)N(C)C)cc3)ccc2S1(=O)=O	i
Cc1ccc([N+](=O)[O-])cc1N(CC(=O)O)S(C)(=O)=O	i
O=C1C(=O)N(Cc2ccco2)C(c2cccc(Oc3ccccc3)c2)C1C(=O)c1cccs1 (centres undefined)	i
Cc1coc(C)c1C(=O)CC1(O)C(=O)N(Cc2ccc(Cl)cc2)c2ccccc21 (centres undefined)	i
O=C(C[C@H]1C=C[C@@H](NC(=O)Cc2cccnc2)[C@H](CO)O1)Nc1ccccc1	i
C[C@@H](NC(=O)C[C@H]1C[C@@H]2c3cc(NC(=O)Nc4ccccc4F)ccc3O[C@@H]2[C@@H](CO)O1)c1ccccc1	i
NC(=O)C1(N2CCCCC2)CCN(CC(=O)Nc2ccc(F)c(Cl)c2)CC1	i

Part of the list above, with each value named:
> O=C(C[C@H]1C=C[C@@H](NC(=O)Cc2cccnc2)[C@H](CO)O1)Nc1ccccc1
  ID4 binder: i
> Cc1ccc(S(=O)(=O)N[C@@H]2CC[C@H](CC(=O)N3CCC(Cc4ccccc4)CC3)O[C@@H]2CO)cc1
  ID4 binder: i
> COC(=O)c1ccccc1NC(=O)Cn1nnc(-c2ccc(OC)cc2)n1
  ID4 binder: i

Other structures:
SMILES	ID4 binder
CC(C)c1ccc(OCC(O)Cn2cnc3ccccc32)cc1 (centres undefined)	i
O=C(COc1ccc(Cl)cc1)Nc1cccnc1	i
N#C[C@@H]1[C@@H](c2ccc(C3=CCCC3)cc2)[C@@H](CO)N1C(=O)NC1CCCC1	i
Cc1cc(=O)oc2cc(OCC(=O)Nc3sc4c(c3C#N)CCC4)ccc12	i
COc1cc(S(=O)(=O)NCCN2CCOCC2)c(OC)cc1Cl	i
Cc1noc(C)c1CSc1nc2[nH]ncc2c(=O)n1-c1ccccc1	i
C/C=C/c1ccc2c(c1)O[C@H](CN(C)C(=O)c1cccc(F)c1)[C@H](C)CN([C@@H](C)CO)S2(=O)=O	i
COc1ccc(-c2cnc3c(c2)C(=O)N([C@H](C)CO)C[C@@H](C)[C@@H](CN(C)Cc2ccccc2)O3)cc1	i
C[C@H]1CN([C@@H](C)CO)S(=O)(=O)c2ccc(C#CCN(C)C)cc2O[C@@H]1CN(C)Cc1ccccc1	i
CCN(CC)C(=O)c1cc(-c2ccc(Cl)c(Cl)c2)on1	i
O=C(CSc1nnc(-c2cccc([N+](=O)[O-])c2)n1-c1ccccc1)NC1CCCCC1	i
O=C(N[C@H]1C=C[C@@H](CC(=O)N2CCOCC2)O[C@@H]1CO)c1ccc2c(c1)OCO2	i
C[C@@H]1CN([C@@H](C)CO)C(=O)c2cc(C#CC3CC3)cnc2O[C@H]1CN(C)C(=O)c1ccccc1	i
C[C@@H]1CN([C@@H](C)CO)C(=O)c2cc(C#Cc3ccccn3)cnc2O[C@H]1CN(C)Cc1ccccc1	i
CN(C)S(=O)(=O)N(CC(=O)Nc1ccccc1C(F)(F)F)c1ccccc1	i
COc1ccc(NC(=O)N(C)C[C@@H]2Oc3ncc(C#C[C@H](C)O)cc3C(=O)N([C@H](C)CO)C[C@H]2C)cc1	i
C[C@H]1CN([C@@H](C)CO)C(=O)c2cc(-c3ccc(F)cc3)cnc2O[C@@H]1CN(C)CC1CCOCC1	i
COc1ccc(NC(=O)CC2NC3CCCCC3NC2=O)cc1 (centres undefined)	i
C[C@@H]1CN([C@@H](C)CO)C(=O)c2cc(Br)cnc2O[C@H]1CN(C)Cc1ccccc1	i
C[C@H]1CN([C@@H](C)CO)C(=O)c2cc(C#CC3(O)CCCC3)cnc2O[C@@H]1CN(C)C	i
COc1ccc(-c2ccc3c(c2)O[C@@H](CN(C)CC2CC2)[C@@H](C)CN([C@@H](C)CO)S3(=O)=O)cc1	i
Cc1scc(C(=O)Nc2cccc(Cn3cccn3)c2)c1-c1ccccc1	+
COc1c2ccoc2cc2oc(=O)ccc12	i
C[C@H]1CN([C@@H](C)CO)C(=O)c2cccc(NC(=O)C3CC3)c2O[C@@H]1CN(C)Cc1ccccc1	i
CCC(=O)N(C)C[C@H]1Oc2ncc(-c3ccccc3C)cc2C(=O)N([C@@H](C)CO)C[C@@H]1C	i
COc1cc([N+](=O)[O-])ccc1NC(=O)CN(C)S(=O)(=O)c1ccc2ccccc2c1	i
CC(C)C#Cc1cnc2c(c1)C(=O)N([C@H](C)CO)C[C@H](C)[C@H](CN(C)Cc1ccccc1F)O2	i
COc1ccc(S(=O)(=O)N(C)CC(=O)Nc2ccccc2SC)cc1	i
Cn1c(SCC(=O)c2cc(C(C)(C)C)c(O)c(C(C)(C)C)c2)nnc1-c1ccncc1	i
N#Cc1ccccc1CSc1nnc(N)n1-c1ccccc1	i
Cc1cc(Br)c(NC(=O)CSc2nccc(=O)[nH]2)cc1C	i
O=C(CCCn1cc([N+](=O)[O-])cn1)Nc1cccc(C(F)(F)F)c1	i
Cc1sc2ncnc(SCC(=O)Nc3ccccc3Cl)c2c1C	i
CCn1c(SCC(=O)Nc2ccc(F)cc2)nnc1-c1cccc(Cl)c1	i
C[C@H](NC(=O)C[C@H]1CC[C@H](NC(=O)C2CC2)[C@@H](CO)O1)c1ccccc1	i
NC(=O)C1(N2CCCCC2)CCN(CC(=O)Nc2ccccc2Sc2ccccc2)CC1	i
CCc1ccc2oc(-c3ccc(C)c(NC(=O)COc4ccccc4)c3)nc2c1	i
C[C@H]1CN([C@@H](C)CO)C(=O)c2cc(N(C)C)ccc2O[C@@H]1CN(C)Cc1ccc(Cl)c(Cl)c1	i
COCC(=O)N(C)C[C@@H]1Oc2cc(-c3cccc(F)c3)ccc2S(=O)(=O)N([C@@H](C)CO)C[C@@H]1C	i
COc1ccccc1CNC(=O)C[C@H]1C[C@@H]2c3cc(NC(=O)C4CCOCC4)ccc3O[C@@H]2[C@@H](CO)O1	i
C[C@H](CO)N1C[C@H](C)[C@@H](CN(C)CC2CC2)Oc2ccc(N(C)C)cc2CC1=O	i
O=C(C[C@@H]1CC[C@@H](NC(=O)C2CC2)[C@@H](CO)O1)NCc1ccccc1Cl	i
Oc1ccccc1C=Nc1ccccc1C(F)(F)F	i
COc1c2c(c(CSc3nnnn3-c3ccccc3)c(OC)c1OC)C(=O)OC2	i
C[C@@H]1CN([C@H](C)CO)C(=O)Cc2cc(NC(=O)C3CC3)ccc2O[C@@H]1CN(C)CC1CCCCC1	i
O=C(CN1C(=O)c2ccccc2S1(=O)=O)Nc1ccc2c(c1)OCCO2	i
C[C@H](NC(=O)C[C@@H]1C[C@H]2c3cc(N(C)C)ccc3O[C@H]2[C@@H](CO)O1)c1ccccc1	i
C[C@@H]1CN([C@@H](C)CO)S(=O)(=O)c2ccc(C3=CCCC3)cc2O[C@@H]1CN(C)C	i
C[C@H]1CN([C@@H](C)CO)C(=O)c2cc(C#Cc3cccc(F)c3)cnc2O[C@@H]1CN(C)C(=O)C1CCC1	i
O=C(CSc1nnc(-c2cccnc2)n1-c1ccccc1)N1CCc2ccccc21	i
C[C@H]1CN([C@@H](C)CO)C(=O)c2cccc(NC(=O)C3CC3)c2O[C@H]1CN(C)C	i
CNC(=O)c1cc2c(cn1)[nH]c1ccccc12	i
COc1ccc(-n2nc3cc(C)c(NC(=O)COc4cccc(C)c4)cc3n2)cc1	i
C[C@H](CO)N1C[C@H](C)[C@@H](CN(C)C)Oc2ncc(-c3cccc(C(=O)N(C)C)c3)cc2C1=O	i
C[C@@H]1CN([C@@H](C)CO)C(=O)c2cc(-c3ccccc3F)cnc2O[C@@H]1CN(C)Cc1cccc(F)c1	i
O=C1C[C@H](c2ccccc2)Oc2c(Cc3ccccc3O)c(O)cc(O)c21	i
COc1ccc(NC(=O)CSc2nc(O)cc(=O)n2-c2ccc(C)cc2)cc1	i
C[C@@H]1CN([C@@H](C)CO)C(=O)c2cc(-c3cccc(C#N)c3)cnc2O[C@@H]1CN(C)Cc1ccc(F)cc1	i
COc1ccc(S(=O)(=O)N(CC(=O)Nc2ccccc2F)C2CCCCC2)cc1Cl	i
C[C@@H]1CN([C@@H](C)CO)S(=O)(=O)c2ccc(C#Cc3ccccc3F)cc2O[C@@H]1CN(C)C(=O)Cc1cccnc1	i
(further entries)
SMILES	ID4 binder
Cc1ccc(-c2csc3ncnc(SCC(=O)Nc4ccc(N(C)C)cc4)c23)cc1	i
COc1ccc(NC(=O)C(C)Oc2ccc3c(C)c(CCC(C)C)c(=O)oc3c2)cc1 (centres undefined)	i
CNc1nc(Oc2ccc(=O)[nH]n2)nc(N2CCOCC2)n1	i
CC(=O)Nc1ccc(S(=O)(=O)NC2(C(F)(F)F)C(=O)N(Cc3ccc(F)cc3)C3=C2C(=O)CC(C)(C)C3)cc1 (centres undefined)	i
O=C(Nc1ccc2c(c1)[C@H]1C[C@@H](CC(=O)N3CCc4ccccc4C3)O[C@H](CO)[C@H]1O2)c1ccc2c(c1)OCO2	i
COc1ccc(Cl)cc1NC(=O)CN1C(=O)c2ccccc2S1(=O)=O	i
COc1ccc(C)cc1NC(=O)C(C)NS(=O)(=O)c1ccc(Cl)cc1 (centres undefined)	i
O=C(CSc1nnnn1-c1ccc(O)cc1)Nc1ccc(F)cc1	i

A different layout for 3 compounds above:
Structure | ID4 binder
CNc1nc(Oc2ccc(=O)[nH]n2)nc(N2CCOCC2)n1 | i
CC(C)C#Cc1cnc2c(c1)C(=O)N([C@H](C)CO)C[C@H](C)[C@H](CN(C)Cc1ccccc1F)O2 | i
O=C(CSc1nnc(-c2cccc([N+](=O)[O-])c2)n1-c1ccccc1)NC1CCCCC1 | i
